Screens (PubChem BioAssay)
MT1-MMP act inh: blocks activation of human MT1-MMP | HT1080 RFP-PRO-GFP cells, GFP/RFP ratio fluorescence, overnight; percent of plate control window, DMSO zero | GFP/RFP ratio change, % at 20 µM | P50281 | 360,000 tested, 0.061% active;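 active = GFP/RFP ratio change of at least 30% with cell ATP level not reduced by more than half and red fluorescence within 50% of control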; also: strong numbers were not always called active
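Assay system: HT1080 RFP-PRO-GFP cells. Benchmarks: DMSO vehicle wells and RFP-L50D-GFP reporter cell wells. Times: overnight cell settling, then overnight compound exposure, 37 °C, 5% CO2. Compound: 20 µM single dose, 1% DMSO. Read-out basis: GFP/RFP fluorescence ratio.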
HIV Env fusion: HIV envelope-mediated fusion inhibition; HeLa-JRFL Env/CEM21 cell fusion, luciferase; inhibition, % at 12.3 µM; 360,000 tested, 1.1% active;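 active = mean replicate inhibition score of at least 50 and every replicate individually at or above 50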;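 also: 0% = plate neutral controls and 100% = maraviroc near 300 nM; one replicate is shown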
PABP FP inh: blocks human PABP binding to poly(A) RNA; fluorescence polarization; inhibition, % at 35 µM; AID 2014; P11940; 290,000 tested, 1% active;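 active = 50% or more with normal probe brightness, or confirmed in later tests; about a fifth of its hits are not listed in these tables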;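 also: calls also rest on retests at 20 µM and on dose response follow-up; controls were probe without protein and protein plus probe with vehicle; some compounds called inactive have numbers as strong as hits; many hits fall short of the cut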
Rce1 inh: inhibitors of yeast Ras-converting enzyme | Q03530 | yeast membranes, quenched prenylated peptide cleavage fluorescence | calls only | 290,000 tested, 0.27% active;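 active = fall in fluorescence gain of 50% or more versus controls, with final raw signal at or below 3038400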;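 also: plate controls were neutral control wells for no effect and wells lacking membranes for full effect; tested at 10 µM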
Target sequence (Q03530 whole entry, looked up): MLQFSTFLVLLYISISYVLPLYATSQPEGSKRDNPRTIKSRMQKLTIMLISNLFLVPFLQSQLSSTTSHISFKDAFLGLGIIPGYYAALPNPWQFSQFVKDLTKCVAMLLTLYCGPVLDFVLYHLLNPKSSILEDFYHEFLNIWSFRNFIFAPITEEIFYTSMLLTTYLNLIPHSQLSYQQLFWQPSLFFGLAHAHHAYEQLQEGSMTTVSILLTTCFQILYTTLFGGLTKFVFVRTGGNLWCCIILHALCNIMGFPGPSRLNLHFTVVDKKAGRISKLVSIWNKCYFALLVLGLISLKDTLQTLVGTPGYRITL
CSC inhib: cancer stem cell inhibition. inhibition, % at 7.5 µM. cancer stem cell-like cells viability, luminescence. AID 2717. 300,000 tested, 1.1% active;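 active = mean at 75% or more and at least half the replicates too; tested in HMLE shEcad cells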;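 also: 0% = median of negative and 100% = median of positive control wells; the first replicate is given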
UUG fidelity: yeast start codon fidelity modulation | S. cerevisiae UUG-firefly luciferase reporter, luminescence/redox ratio | activity score, % at 18.7 µM | 350,000 tested, 0.13% active | AID 602363;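 active = replicate mean at a twofold rise or more, about +100% in these data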;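 also: firefly luciferase made from a UUG start codon reports start codon fidelity; reporter light over untreated wells divided by growth signal over untreated wells; some hits fall short of that in this replicate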
eIF4H inh: inhibitors of RNA binding by human eIF4H; eIF4H fluorescence polarization binding assay; inhibition, % at 35 µM; 290,000 tested, 0.94% active; AID 2012;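 active = 50% or more with normal probe brightness, or confirmed in later tests; about a fifth of its hits are not listed in these tables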;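 also: calls also rest on retests at 20 µM and on dose response follow-up; 0% = protein and probe with vehicle and 100% = probe without protein; strong numbers were not always called active; many hits fall short of the cut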
eIF4H inh retest: recorded beside eIF4H inh, whose call it bears; inhibition, %; compound at 20 µM; confirmation average;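 mean of two retest wells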
PABP FP inh retest: further read-out of PABP FP inh, marked with its call; inhibition, %; compound at 20 µM; confirmation repeats;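 mean of two retest wells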
MT1-MMP act inh RFP: also measured in MT1-MMP act inh; calls as there; RFP signal change, %; measured here: RFP expression control read;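 0 = vehicle wells; hits needed this value within 50% of zero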
* hit, by the source's call; i = inactive; / = not tested or not shown; & = joins results of further samples.

SMILES | MT1-MMP act inh | MT1-MMP act inh RFP | HIV Env fusion | PABP FP inh | Rce1 inh | CSC inhib | UUG fidelity | eIF4H inh | others
Cc1cccc(/C=C/c2onc(C)c2S(=O)(=O)N2CCC(C(=O)N3CCCCCC3)CC2)c1 | -17 | -14 | 12 | 2 | i | 44 | -13 | 4
O=C(Nc1nnc(SCc2cccc(F)c2)s1)c1ccco1 | -1 | 3 | 13 | -6 | i | -2 | / | 1
Cc1cc(/C=C(\C#N)C(=O)OCC#N)c(C)n1CC(C)C | 2 | -2 | -16 | 8 | i | -3 | -3 | 17
Cc1ccc(S(=O)(=O)CC(=O)N(CCCN(C)C)c2nc3ccc(C)cc3s2)cc1 | 3 | 4 | -2 | / | i | 7 | 11 | /
COc1ccccc1CNC(=O)CN(c1ccc(C)cc1)S(=O)(=O)c1c(C)noc1C | -2 | -3 | 8 | 0 | i | -8 | -16 | -8
CCN(CC(=O)Nc1c(F)cccc1F)C(=O)C1CCN(S(=O)(=O)c2ccc(C)c(C)c2)CC1 | -2 | -5 | 12 | / | i | -14 | -7 | /
O=C(c1ccc(F)c(F)c1)N1CCC2(CC1)NCCc1[nH]cnc12 | -1 | 1 | -5 | / | i | 8 | -17 | /
CN1C(=O)C(N=Nc2ccc([N+](=O)[O-])cc2)SC1=S (stereo not given) | 0 | -17 | 28 | / | / | / | -18 | /
CCN(CC)CCN(Cc1cc2cc(C)ccc2[nH]c1=O)C(=O)Nc1ccccc1OC | 5 | 8 | / | 1 | i | -7 | 8 | -1
COC(=O)C1CCN(C(=O)COC(=O)c2n[nH]c3ccccc23)CC1 | 2 | 3 | -46 | / | i | -15 | -14 | /
CO[C@H]1CC[C@@]2(C)[C@@H](CC[C@@H]3[C@@H]2CC[C@@]2(C)[C@H]3C[C@H](C(=O)O)O[C@]23CCCO3)C1 | 4 | 6 | 5 | / | / | / | -14 | /
COc1cccc(N2CCN(C(=O)C3CCN(S(=O)(=O)c4cccs4)CC3)CC2)c1 | 1 | 6 | -7 | -7 | i | -9 | / | -8

A draw from above in order of SMILES length, low to high.
SMILES | MT1-MMP act inh | MT1-MMP act inh RFP | HIV Env fusion | PABP FP inh | Rce1 inh | CSC inhib | UUG fidelity | eIF4H inh | others
CN1C(=O)C(N=Nc2ccc([N+](=O)[O-])cc2)SC1=S (stereo not given) | 0 | -17 | 28 | / | / | / | -18 | /
O=C(c1ccc(F)c(F)c1)N1CCC2(CC1)NCCc1[nH]cnc12 | -1 | 1 | -5 | / | i | 8 | -17 | /
COC(=O)C1CCN(C(=O)COC(=O)c2n[nH]c3ccccc23)CC1 | 2 | 3 | -46 | / | i | -15 | -14 | /
Cc1ccc(S(=O)(=O)CC(=O)N(CCCN(C)C)c2nc3ccc(C)cc3s2)cc1 | 3 | 4 | -2 | / | i | 7 | 11 | /
Cc1cccc(/C=C/c2onc(C)c2S(=O)(=O)N2CCC(C(=O)N3CCCCCC3)CC2)c1 | -17 | -14 | 12 | 2 | i | 44 | -13 | 4
CCN(CC(=O)Nc1c(F)cccc1F)C(=O)C1CCN(S(=O)(=O)c2ccc(C)c(C)c2)CC1 | -2 | -5 | 12 | / | i | -14 | -7 | /

Returning to the listing, repeating the 4 entries before the break.
SMILES | MT1-MMP act inh | MT1-MMP act inh RFP | HIV Env fusion | PABP FP inh | Rce1 inh | CSC inhib | UUG fidelity | eIF4H inh | others
CCN(CC)CCN(Cc1cc2cc(C)ccc2[nH]c1=O)C(=O)Nc1ccccc1OC | 5 | 8 | / | 1 | i | -7 | 8 | -1
COC(=O)C1CCN(C(=O)COC(=O)c2n[nH]c3ccccc23)CC1 | 2 | 3 | -46 | / | i | -15 | -14 | /
CO[C@H]1CC[C@@]2(C)[C@@H](CC[C@@H]3[C@@H]2CC[C@@]2(C)[C@H]3C[C@H](C(=O)O)O[C@]23CCCO3)C1 | 4 | 6 | 5 | / | / | / | -14 | /
COc1cccc(N2CCN(C(=O)C3CCN(S(=O)(=O)c4cccs4)CC3)CC2)c1 | 1 | 6 | -7 | -7 | i | -9 | / | -8
O=C(Nc1ccccc1-c1ccccc1)c1ccccc1 | -1 | -5 | -4 | -1 | i | 12 | -10 | -5
CC/C(=N/N=C(\CC)c1ccccc1)c1ccccc1 | 2 | 8 | 16 | 8 | i | -13 | / | -3
CC1=C(C(=O)Nc2cccc(C(=O)NC(C)c3ccccc3)c2)SCCO1 (stereo not given) | 4 | 0 | -25 | -3 | i | -16 | -13 | 4
CN(C)c1nc(N)nc(CSc2nc3c(c(=O)n(C)c(=O)n3C)n2Cc2ccccc2F)n1 | -4 | -1 | -9 | 0 | i | -20 | -9 | 4
CN(CC(=O)Nc1cccc(F)c1)C(=O)c1cc(S(=O)(=O)N2CCN(c3ccccc3)CC2)ccc1Cl | 8 | -19 | / | / | / | -2 | -8 | /
C=CCN(c1ccc(C(=O)NCCN2CCOCC2)cc1)S(C)(=O)=O | 0 | -3 | 3 | 8 | i | -4 | -9 | -3
CCOCCCNC(=O)C(NC(=O)c1ccc2c(c1)OCO2)c1ccc(Cl)cc1 (stereo not given) | 2 | -4 | -2 | -7 | i | -11 | / | 0
Cn1c(=O)[nH]c(=O)c2c1nc(CN1CCN(c3cccc(Cl)c3)CC1)n2Cc1ccccc1Cl | 0 | -4 | 2 | -10 | i | 53 | -15 | 0
O=C(COc1cccc2cccnc12)NNC(=O)Nc1ccccc1 | -1 | 3 | -39 | 14 | i | -10 | / | -3
Cc1ccc(C(=O)NCC(=O)OCC(=O)Nc2cc(C)c(C)cc2[N+](=O)[O-])cc1 | 2 | 4 | 3 | 3 | i | -11 | -8 | 2
COc1ccc(-c2nc(SCC(=O)N3CCCC3)n[nH]2)cc1 | 3 | 6 | 11 | -1 | i | -18 | -14 | -5
CN(C)CCCNCCCNC(=O)c1ccco1 | -5&-1 | 2&5 | 15 | 64* | i | -10 | -24 | 33* | eIF4H inh retest=58*;PABP FP inh retest=74*

2 records picked at random from the list so far, as already listed:
SMILES | MT1-MMP act inh | MT1-MMP act inh RFP | HIV Env fusion | PABP FP inh | Rce1 inh | CSC inhib | UUG fidelity | eIF4H inh | others
O=C(c1ccc(F)c(F)c1)N1CCC2(CC1)NCCc1[nH]cnc12 | -1 | 1 | -5 | / | i | 8 | -17 | /
CN(CC(=O)Nc1cccc(F)c1)C(=O)c1cc(S(=O)(=O)N2CCN(c3ccccc3)CC2)ccc1Cl | 8 | -19 | / | / | / | -2 | -8 | /

(more compounds)
SMILES | MT1-MMP act inh | MT1-MMP act inh RFP | HIV Env fusion | PABP FP inh | Rce1 inh | CSC inhib | UUG fidelity | eIF4H inh | others
S=C(NNC(=S)NC1CC2C=CC1C2)NC1CC2C=CC1C2 (stereo not given) | 0 | 1 | 23 | -1 | i | -14 | -24 | 16
COc1ccccc1N1CCN(C(=O)c2cc3c(C)nc4ccccc4c3o2)CC1 | -5 | -20 | 6 | 8 | i | -12 | -2 | -4
Cc1cc(=O)oc2cc(OCC(O)CN3CCc4ccccc4C3)ccc12 (stereo not given) | 1 | -2 | / | -6 | i | 6 | -9 | -9
CCOC(=O)c1cc(S(=O)(=O)Nc2cccc(OC)c2)cn1C | -4 | -17 | -10 | 4 | i | 15 | -14 | -15
CCCS(=O)(=O)NC(=O)C1(C)CCN(C(=O)c2cccc(C(F)(F)F)c2)C1 (stereo not given) | 10 | 7 | -2 | / | / | / | -15 | /
Cc1cc(C)n2nc(S(=O)(=O)N(C)c3ccccc3)nc2n1 | 9 | 7 | -44 | -19 | i | -1 | -8 | -11
CCOC(=O)c1cnc2ccc(F)cc2c1Nc1ccc2c(c1)OCCO2 | 3 | -3 | 10 | 40 | i | / | / | 2
COc1ccc(CNC(=O)c2cc(-c3ccccc3O)n[nH]2)cc1 | 0 | -6 | -82 | 14 | / | -2 | -9 | -6
O=C(c1ccc(-n2cnnn2)cc1)N1CCN(C(c2ccccc2)c2ccccc2)CC1 | -6 | -5 | / | -3 | i | 5 | 8 | 0
Cc1ccc2c(c1)[C@H]1[C@H](CO2)[C@H](c2ccccc2)[C@]2(C)C(=O)Nc3cc(Cl)ccc3C(=O)N12 | -29 | -23 | / | / | / | -18 | -20 | /
O=C(C1=C[C@H](C2CCCCC2)C[C@H](OCCCCO)O1)N1CCOCC1 | -4 | 1 | 4 | 2 | i | -18 | -14 | -14
CC(=O)Nc1nc(SCC(=O)NCC2CCCO2)[nH]c(=O)c1NC(=O)c1cccs1 (stereo not given) | 7 | 1 | 4 | 12 | i | -9 | / | 11
CCOC(=O)C1CCN(Cc2ccc(F)c(Br)c2)CC1 | 0 | 0 | -20 | 26 | i | -19 | -8 | 7
COc1ccc(C(=O)N(Cc2cccs2)C2CCS(=O)(=O)C2)cc1 (stereo not given) | -1 | -1 | 8 | 4 | i | -51 | -15 | -9
CN(C)c1ccc(C(CNC(=O)c2ccc(-c3ccccc3)cc2)N2CCOCC2)cc1 (stereo not given) | 8 | 2 | 1 | / | i | -11 | -7 | /
COc1ccc(C(=O)C2CC2)cc1 | 2 | 6 | 6 | / | / | / | -14 | /
COc1ccccc1C1=CC(=O)CCC1 | 1 | 4 | 5 | / | i | -22 | -2 | /
Cc1cccc(C(=O)NNC(=O)c2ccc(Br)cc2)c1 | 4 | 1 | -7 | -2 | i | -14 | / | -1
O=C(Cn1cncn1)NCCCc1ccccc1 | -2 | 0 | -18 | -6 | i | -7 | / | 0
CC1(c2nnc(-c3ccccc3)o2)CC(c2c(Cl)cccc2Cl)=NO1 (stereo not given) | -1 | -5 | 18 | / | i | -32 | -20 | /
COc1ccccc1N(CC(=O)NC1CCCCC1)C(=O)CCC(=O)Nc1ccccn1 | 0 | 5 | / | -5 | i | -10 | -14 | 1
CCCCCCCn1c2c(c(=N)c3c1CCC3)CCCC2 | -25 | -33 | 72* | 40 | i | / | / | -2
CCc1nn(CCCC(=O)NCc2ccccc2C)c(=O)c2cc3occc3n12 | 2 | 2 | 7 | 4 | i | -5 | 16 | -2
COc1cc(C(=S)N2CCCC2)ccc1OCC(N)=O | -2 | -3 | -27 | -3 | i | 2 | -26 | 4
C[C@@H]1CN([C@H](C)CO)S(=O)(=O)c2ccc(C#Cc3ccccc3F)cc2O[C@@H]1CN(C)C(=O)Cc1ccccc1 | -3 | -7 | -8 | / | / | / | 9&-10 | /
COc1cc(/C=N/NC(=O)COc2cccc(F)c2)ccc1OS(=O)(=O)c1ccc(C)cc1 | 6 | -8 | 33 | 2 | i | 44 | -15 | -11
O=C(Nc1ccccc1N1CCCC1)c1cccc(S(=O)(=O)N2CCOCC2)c1 | -4 | -3 | 0 | / | i | 4 | -6 | /
Cc1cc(N2CCCC2)nc(-c2ccccc2O)n1 | 1 | -1 | / | -4 | i | 1 | / | -9
CC(=O)c1ccc(N/C=C\C(=O)c2ccc(C)cc2)cc1 | 3 | 3 | -89 | 14 | i | 13 | / | 7
CCN(CC(=O)Nc1c(F)cccc1F)C(=O)C1CCC1 | -3 | 4 | 4 | / | i | -11 | -14 | /
C/C(Cn1nc([N+](=O)[O-])cc1C)=N\NC(=O)c1ccc(O)cc1O | 5 | 2 | / | -5 | i | -2 | -12 | 8
O=C(COC(=O)c1cccc(Cl)c1Cl)NCCN1C(=O)CSC1=O | 0 | 7 | -11 | 0 | i | / | / | -14
